2A StopGo – lowers the luciferase signal of an FMDV 2A StopGo reporter | Potency, µM (top dose mostly 57.9 µM), for the others: top-dose signal change, negative = less light | 410,000 tested, 1.2% active | human cells with a luciferase reporter of 2A StopGo recoding; control for the full effect not named in the record; active = well fitted falling curve with a large enough effect; inconclusive = small, poorly fitted or top-dose-only effect; inactive = no such curve, though single readings can be large or run the other way; tested in HEK293T cells; note: % is set by controls: 0 for no effect and ±100 for the full control effect; nearly all actives have a fitted effect of over 45% in size; luciferase light after 4 h
MARV entry inh – inhibitors of Marburg virus binding or cell entry; Marburg virus pseudotyped entry inhibition, cell reporter; control for the full effect not named in the record; about a third of the inactives were read at about 46 µM; Potency, µM (doses to about 37.8 µM), inactives show at the top dose activity change, negative = inhibition, usual class: inhibitors; 300,000 tested, 1.8% active; AID 540276; active = well fitted inhibition curve with a large enough effect; inconclusive = small, poorly fitted or top-dose-only effect, or effect the other way; inactive = flat fitted curve, though single readings scatter; tested in HEK293 cells; about a fifth of its hits are not listed in these tables; note: % is set by controls: 0 for no effect and ±100 for the full control effect; luciferase read-out
Cruzain inh noDet – blocks cruzain activity in detergent-free assay; P25779; purified cruzain, Z-FR-AMC fluorescence, no detergent; Potency, µM, for inactives: max response, negative = inhibition, hits mostly inhibitors; 200,000 tested, 2.3% active; AID 1476;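 note: plate controls were enzyme without inhibitor for no effect and buffer without enzyme for full effect; nearly all actives have a fitted effect of over 40% in size; top concentration of the series not given in the record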
Target sequence (P25779 123-467 limits assumed): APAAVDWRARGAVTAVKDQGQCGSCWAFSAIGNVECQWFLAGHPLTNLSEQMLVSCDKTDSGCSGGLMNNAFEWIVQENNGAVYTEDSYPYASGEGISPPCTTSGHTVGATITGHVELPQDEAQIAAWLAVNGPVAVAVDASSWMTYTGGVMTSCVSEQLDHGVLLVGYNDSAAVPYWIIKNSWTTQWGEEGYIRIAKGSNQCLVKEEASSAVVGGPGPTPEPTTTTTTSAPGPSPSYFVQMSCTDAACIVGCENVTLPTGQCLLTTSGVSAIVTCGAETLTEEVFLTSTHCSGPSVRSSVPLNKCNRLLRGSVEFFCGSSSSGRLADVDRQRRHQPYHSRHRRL
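Detergent-free condition (0.00005% Triton X-100) in acetate buffer pH 5.5 with DTT. 1.5 nM enzyme and compound were pre-mixed 15 min, then 2 uM Z-FR-AMC substrate added; reaction progress from fluorescence change between first and third reads (60 s).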
Cruzain inh Det – inhibitors of Trypanosoma cruzi cruzain with detergent; P25779; purified cruzain, Z-FR-AMC fluorescence, 0.01% Triton; Potency, µM, inactives show max response, negative = inhibition, actives largely listed as inhibitors; 200,000 tested, 0.43% active;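 note: plate controls were neutral wells for no effect and buffer without enzyme for full effect; nearly all actives have a fitted effect of over 40% in size; top concentration of the series not given in the record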
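15 min RT preincubation of 1.5 nM cruzain with compound, then 2 uM Z-FR-AMC added; kinetic AMC fluorescence, 60 s delta. Triton X-100 0.01%, pH 5.5.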
NS1 inh – inhibitors of influenza NS1 protein function; S. cerevisiae slowed by influenza A NS1, growth recovery by OD600; Potency, µM (top dose mostly 46.1 µM), without a hit: top-dose activity, positive = more growth; 270,000 tested, 0.4% active; active means well fitted rising curve with a large enough effect; inconclusive means small, poorly fitted or top-dose-only effect; inactive means no such curve, though single readings can be large or run the other way; note: nearly all actives have a fitted effect of over 50% in size
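Growth recovery, yeast-based: influenza A NS1 expressed in S. cerevisiae causes slow growth, and suppressors are detected by OD600. The parent strain without NS1 is used as positive control.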
SARS PLpro yeast – inhibitors of SARS-CoV papain-like protease in yeast; S. cerevisiae expressing SARS-CoV PLpro, growth rescue; control for the full effect not named in the record; Potency, µM (series often up to 32.9 µM), without a hit: at the highest dose activity, positive = growth rescue; 330,000 tested, 0.19% active; active means well fitted rising curve with a large enough effect; inconclusive means small, poorly fitted or top-dose-only effect; inactive means no such curve, though single readings can be large or run the other way; note: 0% is about no effect; nearly all actives have a fitted effect of over 55% in size; growth read by luminescence after 48 h
RE007 growth inh – less growth of the S. pombe RE007 Vpr strain; Potency, µM (top dose mostly 92.2 µM), for inactives: at the highest dose activity change, negative = less growth; 360,000 tested, 0.21% active; AID 651644; S. pombe RE007 Vpr strain, BacTiter-Glo ATP luminescence, 24 h; control for the full effect not named in the record; active = well fitted falling curve with a large enough effect; inconclusive = small, poorly fitted or top-dose-only effect; inactive = no such curve, though single readings can be large or run the other way;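 note: % is set by controls: 0 for no effect and ±100 for the full control effect; nearly all actives have a fitted effect of over 50% in size; the assay follows cell death caused by Vpr and the record does not say whether a fall means rescue or toxicity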
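Fission yeast strain RE007, carrying one chromosomally integrated HIV-1 vpr copy, was seeded at OD 0.01 in PMG+AL medium with 23 nL pinned compound. After 24 h at 30 °C and 99% humidity, viability was read by BacTiter-Glo luminescence.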
Lassa entry inh – inhibitors of Lassa virus binding or cell entry. Lassa virus pseudotype entry inhibition, cell reporter; control for the full effect not named in the record. Potency, µM (titrated, usually from 37.9 µM), for the others: top-dose activity change, negative = inhibition, hits mostly inhibitors. 300,000 tested, 1.2% active; active means well fitted inhibition curve with a large enough effect; inconclusive means small, poorly fitted or top-dose-only effect, or effect the other way; inactive means flat fitted curve, though single readings scatter; tested in HEK293 cells; note: % is set by controls: 0 for no effect and ±100 for the full control effect; nearly all actives have a fitted effect of over 50% in size; luciferase read-out
* marks the source's active call; other numbers are inactive results; ? = inconclusive; . = not tested or not shown; & = joins results of further samples; [ ] = another dose, or the depositor's remark. Unless noted, calls come from the whole dose curve; as a rule, active = well fitted curve in the direction sought with a large enough effect; inconclusive = small, poorly fitted or top-dose-only effect, or another doubt; inactive = no such curve, though single readings can be large; an effect the other way counts as inactive or inconclusive. Potency is the fitted concentration of half-maximal effect.

SMILES	2A StopGo	MARV entry inh	Cruzain inh noDet	Cruzain inh Det	NS1 inh	SARS PLpro yeast	RE007 growth inh	Lassa entry inh
COc1ccc(S(=O)(=O)Nc2ccc(C)cc2)cc1N(C)S(=O)(=O)c1ccc(Cl)cc1	.	?	6%	2.1%	?	-17%	4%	?
Cn1cnc2c(=O)oc3ccc(S(=O)(=O)N4CCN(c5cccc(C(F)(F)F)c5)CC4)cc3c21	-9%	.	12%	-0.5%	.	.	.	?
Cc1ccc[n+](CC(=O)c2ccc(NC(=O)c3ccccc3)cc2)c1	-13%	9%	.	.	.	-4%	-6%	16%
O=C(Cn1c(=O)oc2cc(S(=O)(=O)N3CCCC3)ccc21)N1CCN(c2ccccn2)CC1	0%	-8%	6%	7.1%	-5%	4%	0%	.
Cc1ccccc1OCc1nc(-c2ccc(Br)o2)no1	52%[activator]	.	0%	-3.1%	-62%	-7%	-3%	.
O=C(O)c1ccc(NS(=O)(=O)c2ccc(N3C(=O)CCC3=O)cc2)cc1	6%	2%[46.1 µM]	.	.	0%	12%	-9%	-2%[46.1 µM]
CSc1c(CC(=O)Nc2ccc(F)cc2)n(Cc2ccccc2)c2ccccc12	-22%	?	?	-1.7%	2%	20%	-16%	-21%
NC(=O)COc1ccccc1/C=C1/SC(=O)N(CC(=O)N2CCc3ccccc3C2)C1=O	?	4%	?	2.7%	15%	7%	6%	-11%
COC(=O)c1cc(S(=O)(=O)NCC2CCN(CCc3ccc(OC)cc3)CC2)cn1C	-21%	.	.	.	11%	19%	1%	.
Clc1ccc(SCCOCCN2CCCCCC2)cc1	-18%	.	.	.	-17%	-3%	-16%	.
O=C(CSc1cccc[n+]1[O-])C12CC3CC(CC(C3)C1)C2	-14%	-13%[46.1 µM]	.	.	.	-1%	-27%	-1%
Cc1oc2c(cc(NS(=O)(=O)c3ccc(C(C)C)cc3)c3ccccc32)c1C(=O)O	-15%&-4%	?	19%	?	22%	-3%	5%	23%&0%[46.1 µM]
Cc1ccc(S(=O)(=O)N2CCN(C(=O)c3nn(C(C)C)c(=O)c4ccccc34)CC2)cc1C	-18%	?	?	-3.2%	-2%	1%	-14%	-29%
Cn1c(SCC(=O)NNC(=O)Nc2ccccc2)nnc1-c1ccccc1	14%	-7%[46.1 µM]	.	.	-2%	-2%	-5%	17%[46.1 µM]
O=C(NS(=O)(=O)c1ccc(Cl)s1)c1ccccc1	-3%	.	.	.	-17%	4%	-4%	.
CN(C(=O)COC(=O)c1ccc(=O)n(Cc2ccccc2)n1)C1CCS(=O)(=O)C1 (stereo not given)	1%	-7%	.	.	.	-1%	-1%	4%
Cc1cccc(CN2CCC(n3nccc3NC(=O)c3ccccc3C)CC2)n1	-12%	6%	.	.	-1%	?	4%	6%
O=S(=O)(c1cccs1)N1CCN(c2ccc(O)cc2)CC1	-4%	?	.	.	1%	-1%	7%	?
Cn1ccnc1Sc1ccc(/C=N/NC(=O)c2ccccc2O)cc1[N+](=O)[O-]	-4%	-4%	6%	-5.7%	-1%	-8%	1%	2%
COCCn1c(SCC(=O)Nc2ccc(S(=O)(=O)N3CCOCC3)cc2)nc2ccccc21	-23%	-12%&-12%	?	6.2%	-21%	-1%	2%	-8%
Cc1ccc(CNC(=O)Cn2c(=O)n(-c3ccc(C)cc3)c(=O)c3c2c2cc(C)ccc2n3C)cc1	-5%	.	10%	2.8%	.	.	.	2%[46.1 µM]
O=C(c1ccc2c(c1)OCCO2)N1CCCC(CNS(=O)(=O)c2cccs2)C1 (stereo not given)	-4%	.	.	.	-5%	1%	22%	.
Cc1ccc(-n2nnnc2SCC(=O)NC(=O)Nc2ccc3c(c2)OCCO3)cc1	.	18%	-12%	-2.8%	-31%	8%	0%	17%
COc1ccc(C(=O)Nc2ccccn2)cc1S(=O)(=O)N1CCOCC1	-9%	18%	.	.	-3%	0%	-10%	5%
O=C(C1CCCO1)N1CCN(c2ncccn2)CC1 (stereo not given)	1%	4%	5%	1.8%	8%	1%	?	10%
CCCc1cc(=O)oc2c3c(cc(OCC(=O)NCc4ccccn4)c12)OC(C)(C)CC3	-26%	.	.	.	-34%	3%	4%	.
O=C(CN1CCOCC1)N/N=C/c1ccc(-c2ccc(C(=O)O)cc2)o1	-12%	5%[46.1 µM]	.	.	8%	0%	9%	-1%
CC(C)c1nc(SCC(=O)Nc2ccc(N(C)C)cc2)c2ccccc2n1	?	.	.	.	16%	0%	-2%	.
O=Cc1ccc(C(=O)OCC(=O)NCCC2=CCCCC2)cc1	-24%	6%	.	.	.	3%	-1%	2%
COc1ccccc1C(=O)N1C(CC(=O)Nc2ccc(C)c(C)c2)C(=O)NC2CCCCC21 (stereo not given)	?	.	.	.	-4%	-1%	19%	.
CC(=O)[C@H]1[C@H](c2cccc(Cl)c2)C(C#N)(C#N)[C@@H]2c3ccccc3C=CN21	.	.	-17%	-8.8%	5%	-19%	.	.
Cc1onc(-c2ccccc2)c1-c1ccnn1C(=O)NC(C)C	-22%	-14%	.	.	-5%	0%	37%	?
Cc1cc(C)c(C)c(S(=O)(=O)NCc2ccc(C(=O)NCC3CCCO3)cc2)c1C (stereo not given)	-14%	.	.	.	-7%	-4%	27%	.
CCOc1cc2c(cc1OCC)C(CC(=O)OC)N(C(=O)Nc1cc(OC)ccc1OC)CC2 (stereo not given)	?	.	?	-5.6%	.	.	.	26%[46.1 µM]
CC(=O)Nc1ccc(S(=O)(=O)N2CCCN(c3nc(C)cc(C)c3C#N)CC2)cc1	-23%	.	.	.	5%	1%	1%	.
CCCSCCCNC(=O)Cn1cc2c(n1)CCC(C)C2 (stereo not given)	-20%	.	-4%	0.5%	?	0%	11%	.
COc1ccc(CN(C)CC(=O)Nc2ccccc2C(F)(F)F)c(OC)c1	-2%	2%	8%	-0.2%	4%	-23%	.	1%
O=C(Nc1ccc(N2CCOCC2)cc1)C1(S(=O)(=O)c2ccccc2)CC1	21%	4%	2%	-0.5%	1%	-7%	-4%	19%
O=C(Oc1cccc(NC2=NS(=O)(=O)c3ccccc32)c1)c1ccncc1	-3%	.	.	.	1%	0%	8%	.
COC(=O)c1ccc(C2C(C(C)=O)=C(C)Nc3ncnn32)cc1 (stereo not given)	-13%	.	-1%	-0.5%	1%	-1%	3%	.
COc1ccc(C=O)cc1Cn1c(C)cc(C)c(C#N)c1=O	-16%	?	.	.	.	0%	-10%	12%[46.1 µM]
O=C(NCc1ccc2c(c1)OCO2)c1ccc(CS(=O)Cc2ccc(Cl)cc2)o1 (stereo not given)	-13%	0%[46.1 µM]	.	.	5%	3%	1%	?
CC(C)Oc1cccc(C(=O)NC(=S)Nc2ccc(N3CCN(C)CC3)cc2)c1	-3%	.	.	.	6%	-1%	10%	.
Cc1nc2ccccc2c(=O)n1/N=C/c1ccc(OC(F)F)cc1	4%	6%	.	.	3%	1%	19%	?
COc1ccc(OC)c(NC(=O)c2ccc(NC3=NC4CS(=O)(=O)CC4S3)cc2)c1 (stereo not given)	-5%	.	.	.	-3%	-4%	3%	.
COc1ccc(NC2=CC(=O)CC(c3ccc(C)cc3)C2)c(OC)c1 (stereo not given)	2%	-5%[46.1 µM]	.	.	.	.	13%	-32%
CCCn1c(=N)n(CC(=O)c2ccco2)c2ccccc21	-13%	-43%	-5%	4.8%	.	17%	2%	0%
CC(=O)Nc1ccc(NC(=O)C2CCCN2S(=O)(=O)c2cccc(C(F)(F)F)c2)cc1 (stereo not given)	-16%	.	.	.	-6%	2%	-7%	.
CCCc1cc(=O)oc2c3c(cc(OCC(=O)NCCN4CCOCC4)c12)OC(C)(C)CC3	1%	.	.	.	-3%	7%	-7%	.
C=C1CCN(C(C)C(=O)O)S(=O)(=O)c2ccccc21 (stereo not given)	63%[activator]	.	.	.	8%	0%	4%	.
COc1cccc(-c2coc3c(C)c4oc(=O)c(CC(=O)O)c(C)c4cc23)c1	-5%	0%	.	.	7%	2%	4%	0%
COCCN(C(=O)CSc1nc(N)cc(=O)[nH]1)c1c(N)n(Cc2ccccc2)c(=O)[nH]c1=O	-2%	-11%[46.1 µM]	.	.	.	4%	-6%	12%
COc1ccc(OC)c(NC(=O)c2ccc(NS(=O)(=O)c3c(C)noc3C)cc2)c1	-5%	1%	-1%	-5.0%	-3%	1%	4%	-8%
COc1ccc2nc(NCc3ccc(OC)c(OC)c3OC)sc2c1	-4%	-20%[46.1 µM]	.	.	.	.	-29%	-10%[46.1 µM]
Cc1ccc(/C(N)=N/OC(=O)C23CC4CC(CC(C4)C2)C3)cc1	17%	3%	4%	-9.4%	-40%	-6%	-19%	-17%
O=C(c1ccncc1)N1CCN(C(=O)c2cccs2)CC1	-6%	14%	9%	-0.6%	-4%	2%	-16%	9%
Cc1cc(C)c2sc(N(Cc3cccnc3)C(=O)CCOc3ccccc3)nc2c1	-1%	.	-7%	-2.7%	.	.	.	3%[46.1 µM]
COc1cccc(NC(=S)NCc2ccco2)c1	71%[activator]	-7%	-2%	-0.4%	2%	-17%	.	-5%
O=C(Nc1cc(S(=O)(=O)N2CCOCC2)ccc1-n1cncn1)c1ccc(Cl)cc1	-13%	.	.	.	4%	1%	11%	.
COc1cccc(-n2cc(C(=O)OCc3ccc(Cl)cc3)c3ccccc3c2=O)c1	-28%	.	-9%	-2.8%	.	.	.	?
Cc1noc(C(=O)Nc2sc3c(c2C#N)CCC3)c1Cl	5%	.	-25%	1.6%	-106%	2%	-7%	.
Cc1ccccc1NC(=O)c1oc2c(c1C)-c1nn(Cc3cccc(Cl)c3)cc1CC2	-1%	.	8%	-3.2%	.	.	.	-7%[46.1 µM]
CNS(=O)(=O)c1ccc(N=Cc2c(O)n(-c3cccc(C)c3)c(=O)[nH]c2=O)cc1	-17%	15%[46.1 µM]	.	.	17%	3%	5%	3%
